B2AR ag = agonists of human beta-2 adrenergic receptor inducing internalization; Am2.2-beta2AR cells, FAP receptor internalization, flow cytometry; reference of the scale not given here; 340,000 compounds, 0.43% hits; P07550; response, % (concentration not given with the values);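 active = response above a set limit, near 3 SD of response in nonfluorescent compounds, cut at about 42% in these data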;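 note: stock transfer was 100 nL into about 11 µL; a reference agonist was the positive control; negative values mostly stem from fluorescent compounds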
Target sequence (P07550 whole entry, looked up): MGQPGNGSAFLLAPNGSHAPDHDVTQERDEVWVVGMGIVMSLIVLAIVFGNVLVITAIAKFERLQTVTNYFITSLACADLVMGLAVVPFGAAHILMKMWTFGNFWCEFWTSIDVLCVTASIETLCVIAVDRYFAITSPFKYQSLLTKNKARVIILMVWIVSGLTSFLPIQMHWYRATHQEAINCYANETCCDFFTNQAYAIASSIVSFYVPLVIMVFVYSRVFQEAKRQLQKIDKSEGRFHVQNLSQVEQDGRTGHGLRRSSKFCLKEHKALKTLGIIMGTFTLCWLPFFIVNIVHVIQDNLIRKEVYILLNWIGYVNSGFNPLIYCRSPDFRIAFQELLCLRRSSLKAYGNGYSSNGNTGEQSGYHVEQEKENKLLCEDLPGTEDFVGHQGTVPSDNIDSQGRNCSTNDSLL
Calb FLC = affects C. albicans growth with fluconazole; 300,000 compounds, 0.57% hits; C. albicans CaCi-2 (fluconazole-resistant clinical isolate) + fluconazole, Alamar Blue growth, 48 h; AID 1979; growth inhibition, % (test concentration not listed);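 active = most replicates above 75%; inconclusive = exactly half above 75%; inactive = most below 75%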;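 note: all wells also contain fluconazole at 8 µg/ml as a sub-toxic cotreatment; 0% = median of DMSO wells and 100% = median of geldanamycin control wells; wells of about 8 µL received 7.5 nL stock; the first replicate is given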
RanGTP-Impb inh = disruptors of Ran-importin-beta complex formation – biochemical, FRET, CFP-Ran, YFP-importin-beta, homogeneous, primary screen | cell-free CFP-Ran/YFP-importin-beta FRET ratio | inhibition, % (no concentration beside the values) | 300,000 compounds, 1.1% hits;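 active = most replicates above 15%; inconclusive = exactly half above 15%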;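 note: 0% = DMSO wells and 100% = Ran loaded with GDP instead of GTP; wells of about 40 µL received 100 nL stock; the first replicate is given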
ALR inh = blocks human ALR sulfhydryl oxidase activity; 290,000 compounds, 3.8% hits; purified ALR, DTT oxidation, H2O2 HRP-luminol luminescence; inhibition, % (test concentration not listed);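 active = mean and each replicate at 75% or more; inconclusive = only one of the two met; inactive = neither met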;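 note: stock transfer was 7.5 nL into about 7.5 µL; 0% = neutral wells and 100% = wells with inactivated enzyme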
Target sequence (P55789 whole entry, looked up): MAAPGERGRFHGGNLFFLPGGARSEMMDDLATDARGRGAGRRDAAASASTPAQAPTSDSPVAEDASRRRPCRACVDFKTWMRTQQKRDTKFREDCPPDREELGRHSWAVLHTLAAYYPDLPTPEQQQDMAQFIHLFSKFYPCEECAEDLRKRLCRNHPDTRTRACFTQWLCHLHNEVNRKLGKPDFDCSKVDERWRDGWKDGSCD
Vif TR-FRET = inhibitors of Vif binding to APOBEC3G peptide, primary screen, biochemical, TR-FRET, GST-Vif 1-94, biotin-A3G peptide, dose response retest (AID 1117319); inhibition, %; hits with a dose series show IC50 in µM; TR-FRET GST-Vif / biotin-A3G peptide binding; higher % means a stronger effect; test concentration not given here; strong numbers were not always called active; 260,000 compounds, 0.57% hits;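 active = above the screen mean plus three standard deviations and confirmed in dose response; inconclusive = results disagree or hit not tested in dose response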;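 note: Vif residues 1-94 fused to GST binding biotinylated APOBEC3G peptide 110-148; 0% = full assay without inhibitor and 100% = GST in place of GST-Vif; retest series ran down from 100 µM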
LANA-H2B inh = blocks KSHV LANA binding to histone H2A/H2B | inhibition, % (concentration not given with the values) | cell-free LANA-H2A/H2B peptide, fluorescence polarization | 320,000 compounds, 0.6% hits | AID 2629; in the data active = inhibition mostly above about 10%, no sharp cut-off; inactive = mostly below about 6.7%;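 note: stock transfer was 7.5 nL into about 10 µL; 0% = median of vehicle wells and 100% = median of positive control wells; one replicate is shown; the record names a cut of 25% in any replicate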
HNF4A DNA FP = change in binding of human HNF4 alpha to DNA; 360,000 compounds, 0.3% hits; HNF4a-FITC DNA binding, fluorescence polarization, 1 h; activity change, % at 10 µM; P41235; AID 1224865; in the data active = activity change above about 30%, passing the limit was not always enough;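 note: controls were the assay level and a saturating level of protein; the project sought stronger binding though the title names inhibitors; some compounds called inactive have numbers as strong as hits; positive values seem to mean higher polarization but the record does not say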
Target sequence (P41235 whole entry, looked up): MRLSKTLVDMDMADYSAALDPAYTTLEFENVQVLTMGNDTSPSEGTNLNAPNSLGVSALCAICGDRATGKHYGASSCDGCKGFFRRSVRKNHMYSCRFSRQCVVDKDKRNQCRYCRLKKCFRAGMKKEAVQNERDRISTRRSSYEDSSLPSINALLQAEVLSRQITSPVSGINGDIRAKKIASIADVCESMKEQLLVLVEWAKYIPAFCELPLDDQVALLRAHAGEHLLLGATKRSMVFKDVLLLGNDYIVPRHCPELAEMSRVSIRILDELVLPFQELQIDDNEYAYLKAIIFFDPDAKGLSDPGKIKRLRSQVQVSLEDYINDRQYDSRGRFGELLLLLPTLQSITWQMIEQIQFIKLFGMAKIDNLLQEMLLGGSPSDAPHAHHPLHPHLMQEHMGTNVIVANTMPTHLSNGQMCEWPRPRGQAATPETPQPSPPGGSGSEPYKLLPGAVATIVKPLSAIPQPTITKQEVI
An asterisk follows results filed as active; ? = inconclusive; nt = not tested or not shown.

SMILES	B2AR ag	Calb FLC	RanGTP-Impb inh	ALR inh	Vif TR-FRET	LANA-H2B inh	HNF4A DNA FP
O=C(NCC(c1ccco1)N1CCCC1)c1ccc(Cl)c(S(=O)(=O)N2CCc3ccccc32)c1 (stereo not given)	12	nt	nt	-1	nt	-1.8	8.7
COc1ccc(-c2cc(C(=O)O)c3sc(N4CCCCC4)nc3n2)cc1OC	3	8	-1.6	8	nt	-2.7	-1.9
COCCNC(=O)c1nc2c(nnn2Cc2cc(C)ccc2C)c(=O)[nH]1	3	15	1.7	6	-3%	-5.9	0.2
COc1ccc(C(=O)Nc2cc(C(=O)NCCc3ccccc3)ccc2Cl)cc1	-4	-10	-4.8	-3	-1%	0.0	1.0
CC[C@H](C)[C@H](NC(=O)OCc1ccccc1)C(=O)OCC(=O)N(C)CC(=O)Nc1ccccc1Cl	0	8	0.2	nt	-2%	nt	-5.5
CC1CN(C(=O)c2ccc(NS(=O)(=O)c3ccc(C(C)(C)C)cc3)cc2)CC(C)O1 (stereo not given)	-12	0	1.8	nt	nt	nt	-2.1
Cc1cc(C)nc(N2C(=O)CC(C(C)c3ccccc3)C2=O)n1 (stereo not given)	-1	-4	0.5	nt	-7%	0.0	1.3
C[C@@H](CSc1ccc(Br)cc1)CN1CC[C@H](O)CCC1=O	-7	nt	nt	-2	nt	-4.2	-0.3
O=C(NCc1ccc(Cl)cc1Cl)C1CC(=O)N(Cc2ccccc2)C1 (stereo not given)	-7	-3	4.4	-10	15%	-3.7	0.6
CCOC(=O)N1C2=NC(C(=O)OC)=C(C(=O)OC)[C@@H]3Nc4ccccc4[C@]23C[C@H]1C(=O)OC	5	-6	0.1	-1	4%	0.8	-2.6
COc1ccc(C2CC(c3cccs3)=NN2C(=O)CCC(=O)O)cc1 (stereo not given)	-6	-11	-3.8	-3	-5%	0.3	-4.7
COc1ccc(C(=O)/C=C2\NCC3c4ccccc4CCN3C2=O)cc1 (stereo not given)	1	-1	0.6	2	-6%	4.1	1.3
Cc1ccc(-c2noc(CN3CCN(C(c4ccccc4)c4ccccc4)CC3)n2)cc1	-1	-7	3.1	-8	-9%	0.4	1.4
Cc1[nH]n(-c2ccccc2)c(=O)c1C1(C(F)(F)F)C(=O)N(c2ccccc2)C2=C1C(=O)CC(C)(C)C2 (stereo not given)	10	31	6.2	17	3%	1.9	3.6
CCn1cc(/C=C(\NC(=O)c2ccc(OC)c(OC)c2)C(=O)NCCCN2CCOCC2)c2ccccc21	0	2	12	nt	nt	nt	-2.0
CCOCCOc1nc2c(c(=O)n(C)c(=O)n2C)n1Cc1ccc(C)cc1	-11	-15	5.7	0	nt	1.3	-2.0
O=c1cc(C(F)(F)F)nc(SCc2cccnc2)[nH]1	0	-4	-0.1	-15	6%	1.5	0.1
O=S(=O)(Cc1ccccc1)NCCc1ccc(F)cc1	-2	-28	5.2	-29	nt	-1.7	-3.2
CC1(C)Cc2c(C#N)c(SCC(=O)c3ccccc3)nc(N3CCOCC3)c2CS1	2	-12	2.1	-14	-63%	2.6	5.2
CCOC(=O)c1c(-c2ccncc2)csc1N	9	-11	1.8	15	2%	-2.1	0.1
COc1ccc(Cl)cc1C(=O)NNC(=O)CCNS(=O)(=O)c1ccccc1	-2	nt	nt	-3	-2%	6.0	-4.7
Cc1cc(C)c2[nH]c(O)c(N=NC(=O)c3cc4c(s3)CCCC4)c2c1	nt	-1	-2.6	4	-3%	0.0	nt
COc1ccc([N+](=O)[O-])cc1NC(=O)C(C)NNC(=O)c1cccc([N+](=O)[O-])c1 (stereo not given)	3	nt	nt	1	nt	4.3	5.1
CCOc1ccc(NC(=S)N2C3CCCC2CC(NC(=O)C2CC2)C3)cc1 (stereo not given)	0	-1	-1.3	-9	nt	-2.2	-1.1
O=C(NCCO)c1ccc(Cl)c(Cl)c1	20	1	-0.6	1	-4%	4.6	-2.2
Cc1cc(C)n(CCn2nc(C)cc2C)n1	-4	-2	nt	-2	-3%	1.9	-0.4
CC(=O)c1cccc(NCC(=O)c2ccc(C)c([N+](=O)[O-])c2)c1	0	7	-1.3	-4	4%	1.3	-1.7
CC(C)OC(=O)C(NC(=O)c1ccccc1)=C1CCCCC1	0	8	-1.0	-4	-6%	0.5	0.6
CCOCCCNC(=O)CN(Cc1ccc(Cl)cc1)S(C)(=O)=O	-2	-15	-0.1	-7	1%	-9.2	-0.5
CCOC(=O)c1cc(CC)sc1NC(=O)CN1CCN(C(=O)C2CCCO2)CC1 (stereo not given)	-1	-4	2.2	35	nt	0.2	2.9

Some of the entries so far, with bars between the fields:
smiles | B2AR ag | Calb FLC | RanGTP-Impb inh | ALR inh | Vif TR-FRET | LANA-H2B inh | HNF4A DNA FP
CCOCCCNC(=O)CN(Cc1ccc(Cl)cc1)S(C)(=O)=O | -2 | -15 | -0.1 | -7 | 1% | -9.2 | -0.5
CCOC(=O)c1cc(CC)sc1NC(=O)CN1CCN(C(=O)C2CCCO2)CC1 (stereo not given) | -1 | -4 | 2.2 | 35 | nt | 0.2 | 2.9

Continued.
SMILES	B2AR ag	Calb FLC	RanGTP-Impb inh	ALR inh	Vif TR-FRET	LANA-H2B inh	HNF4A DNA FP
O=C1CCC(=O)N1CC1CC2CCC1C2 (stereo not given)	1	3	1.6	-3	4%	-2.7	0.1
O=C(N/N=C/c1ccc(O)c(O)c1)c1ccc(CSc2cccc3cccnc23)cc1	2	-12	-5.7	nt	?	3.6	-3.4
Cc1cccc(N2CCN(C(=O)c3ccccc3NC(=O)C3CCCCC3C(=O)O)CC2)c1 (stereo not given)	2	-5	4.6	37	6%	-1.7	3.0
OCCCc1ccc(O)c(O)c1	-1	5	?	20	nt	0.9	-0.8
Cc1cc2ccccc2c(=O)n1CC(=O)N(C)c1ccc(F)cc1	-10	5	-0.6	-2	-3%	1.2	-0.1
COc1cc(OC)c(NC(=O)CCNC(=O)Cn2ccc3ccccc3c2=O)cc1Cl	-6	-2	-6.0	nt	-6%	3.0	0.9
COc1ccccc1OCCNC1CCCC1	-2	-13	0.4	nt	3%	4.0	1.2
O=C(c1ccco1)N1CCN(S(=O)(=O)c2ccc(F)cc2)CC1	-6	15	2.2	nt	72%	1.5	-3.0
CCc1ccc2nc(-c3cccc(C)c3)nc(SCC(=O)NCC3CCCO3)c2c1 (stereo not given)	3	4	?	-34	-1%	-0.7	-1.1
COCCNC(=O)C(c1ccc(C)o1)N(C(=O)c1snc(C(N)=O)c1N)c1ccc(C)cc1 (stereo not given)	-2	-2	-3.5	3	-10%	2.1	-2.7
O=C(COC(=O)c1ccc2c(c1)C(=O)N(Cc1ccco1)C2=O)NCC(F)(F)F	-5	-1	?	3	2%	0.4	1.4
Cc1ccc(C(=O)Nc2ccc3c(c2)CCC3)cc1S(=O)(=O)N1CCOCC1	-1	12	-1.7	nt	20%	2.5	0.8
CCOc1ccccc1C(=O)Nc1ccc2c(c1)C(=O)NC2=O	1	3	-1.1	nt	nt	4.8	-3.6
Cc1cc(Nc2ccc(C)c(Br)c2)n2nc(C)nc2n1	-7	-4	-4.2	-16	-2%	3.7	9.2
CCCCN(CCCNC(=O)Cn1ncc2ccsc2c1=O)Cc1ccccc1	-3	13	2.5	-1	-4%	1.1	-0.1
CCN(CC)CCn1c(SCC(=O)Nc2cccc(OC)c2)nc2c(sc3ccccc32)c1=O	6	2	-13	nt	-1%	2.5	-2.0
CC(NC(=O)NC1CCCCC1)c1ccccc1 (stereo not given)	-3	-2	5.8	nt	-12%	0.6	0.4
CCN1C(=O)[C@H]2[C@@H](c3ccc(-c4ccc(Cl)c(Cl)c4)cc3)N[C@@](C)(C(=O)OC)[C@H]2C1=O	0	9	-0.3	1	nt	7.1	-4.9
CC1CCCN(c2ccc(C(=O)NCc3ccccc3)cn2)C1 (stereo not given)	1	-5	0.9	1	-9%	-0.8	3.9
O=C(O)Cn1c2ccccc2c2n[nH]c(=S)nc21	4	9	1.2	45	nt	-2.8	-2.0
CN(C)C(=O)CSc1n[nH]c(-c2ccco2)n1	0	5	7.7	-6	nt	3.6	-1.1
S=C1SCN(Cc2ccccn2)CN1Cc1ccco1	-2	-15	2.6	3	30%	2.4	0.3
Cc1ccc(NC2CCCN(C(=O)CSc3ccccn3)C2)cc1C (stereo not given)	2	-1	-3.1	99*	nt	1.0	1.5
NC(=O)N/N=C/c1ccc(-c2ccc(S(=O)(=O)Nc3ncccn3)cc2)o1	-5	nt	nt	nt	9%	nt	-4.0
OCC[C@@H]1C[C@@H](O)[C@H](O)[C@@]2(Cc3ccccc3CO2)O1	8	-2	?	1	nt	-0.6	-0.1
COCCN(CC(=O)Nc1cc(Cl)ccc1-n1cncn1)Cc1nc2ccccc2c(=O)[nH]1	-2	nt	nt	0	-5%	3.7	-2.6
O=C(Nc1nnc(SCC(=O)N2CCCC2)s1)C1CC(=O)N(c2ccccc2)C1 (stereo not given)	-8	2	2.1	-4	nt	2.7	3.3
CCOc1ccc(C(=O)OCC(=O)NC2CCCCCCC2)cc1	-2	nt	nt	nt	nt	5.6	6.7
CN=C(Nc1ccc(C(=O)OC)s1)c1ccccc1	-4	0	4.6	14	-1%	-0.7	3.9
O=C(Nc1ccccc1N1CCN(C(=O)c2ccccc2)CC1)c1ccc(Br)o1	5	-1	1.6	-13	nt	1.6	0.5
COc1cc(C2CC(=O)N3CN(Cc4ccccc4)CSC3=C2C#N)ccc1OCc1ccccc1 (stereo not given)	-4	15	5.6	-14	-81%	-3.6	0.8
Cc1ccccc1NC(=O)CN1C(=O)S/C(=C\c2ccc(-c3cc(C(=O)O)ccc3C)o2)C1=O	14	-4	-106	nt	17%	nt	6.5
CC(C)CCNC(=O)c1ccc(-n2cnc3cccnc32)cc1	-1	-1	1.2	-9	-7%	-1.5	0.4
O=C(COC(=O)c1ccccc1Oc1ccccc1)NC1CC1	-1	-8	-0.8	nt	13%	-1.1	-2.4
COc1ccccc1CNC(=O)C1CCN(S(=O)(=O)c2ccc3c(c2)OCCCO3)CC1	-3	9	-1.9	0	11%	2.0	-4.2
CCCOc1ccc(C(=O)Nc2cc(-c3nn4c(C)nnc4s3)ccc2C)cc1	1	20	2.9	nt	8%	2.2	0.5
Cc1ccnc(OC(C(=O)O)C(OCc2ccccc2)(c2ccc(F)cc2)c2ccc(F)cc2)n1 (stereo not given)	5	1	-0.6	2	3%	-1.1	-0.5
O=C(c1ccco1)N1CCC(c2ccccc2)C1 (stereo not given)	-6	-3	8.0	6	-2%	0.7	0.3
S=C(Nc1ccc(Br)cc1)NC1CCCC1	-3	-4	1.9	nt	-6%	5.2	-2.2
CC1(c2ccccc2)NC(=O)N(CC(=O)Nc2cccc(C#N)c2)C1=O (stereo not given)	-4	-7	2.5	nt	70%	2.6	1.4
COc1ccc(C(=O)NCC(=O)OCC(=O)N2CCC(C)CC2)cc1OC	-3	-33	-4.5	2	-4%	3.7	-1.4
COc1cc(SC)ccc1C(=O)OC(C)C(=O)Nc1ccc(NC(C)=O)cc1 (stereo not given)	8	-11	-0.9	-5	nt	7.4	17
COc1ccc(N(C(=O)COc2ccccc2)C2C=CS(=O)(=O)C2)c(OC)c1 (stereo not given)	-9	3	1.5	-8	-2%	3.5	4.4
CC1CC(C)CN(C(=O)COC(=O)c2ccc3ncsc3c2)C1 (stereo not given)	5	nt	nt	nt	nt	2.0	-6.3
O=C(NN=Cc1c(F)cccc1F)c1ccccc1NS(=O)(=O)c1cccs1	0	nt	nt	33	0%	-0.6	2.1
COc1ccc(C(=O)NN2CCOCC2)cc1	3	-2	2.2	14	-5%	6.6	6.0
O=C(O)c1nccnc1C(=O)Nc1ccc(Oc2c(Cl)cccc2Cl)nc1	7	43	2.7	0	nt	5.0	-0.3
O=C(c1c[nH]c2ccccc12)C(F)(F)F	5	-13	0.0	-15	8%	0.6	-4.9
Cc1ccc(NC(=S)NCc2ccc(Cl)cc2)c(C)c1	8	-2	3.4	8	nt	4.2	0.3

High-throughput results: PubChem, several laboratories
